Sfp inh = Sfp phosphopantetheinyl transferase inhibition; actives 3.5% (n = 310,000); Biochemical Sfp PPTase activity, qHTS; Potency, µM, for inactives: max response, negative = inhibition, usual class: inhibitors; AID 1490; active means well fitted inhibition curve with a large enough effect; inconclusive means small, poorly fitted or top-dose-only effect, or another doubt; inactive means no such curve, though single readings can be large or run the other way;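 further: the enzyme is Sfp with the accession as filed and its product quenches rhodamine fluorescence; potency means the concentration at half of the fitted maximal effect; 0% = enzyme reaction without inhibitor and -100% = no enzyme wells; top concentration of the series not given in the record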
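Reaction rates are the 30-min fluorescence difference (ex 525, em 598 nm) in wells containing 15 nM Sfp, 5 uM rhodamine-CoA and 12.5 uM BHQ-2-YbbR at pH 7.6 with 10 mM MgCl2.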
D2 potentiator = human D2 receptor positive allosteric modulation; P14416; AID 624464; actives 0.23% (n = 360,000); potentiation, % (concentration not given with the values); DiscoveRx D2 beta-arrestin cells, luminescence, 90 min; 100% = 57 uM dopamine signal; active = potentiation of 50% or more; inconclusive = 30% to 50%; inactive = 30% or less;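 further: compound concentration not given in the record; tested on top of an EC20 dose of dopamine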
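PathHunter D2 cells, attached overnight at 37 deg C, received compound in DMSO plus dopamine at EC20 (50 nM final) for 90 min at 37 deg C. Beta-arrestin recruitment was read as luminescence after 1 h with detection reagent at ambient temperature.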
gsp agonist = agonists of gsp mutant (McCune-Albright syndrome); gsp mutant cells, cAMP HTRF, 30 min; control for the full effect not named in the record; Potency, µM (top dose mostly 76.9 µM), without a hit: at the highest dose activation (cAMP increase), most hits filed as activators; actives 0.13% (n = 340,000); AID 624287; active = well fitted activation curve with a large enough effect; inconclusive = small, poorly fitted or top-dose-only effect, or another doubt; inactive = no such curve, though single readings can be large or run the other way; cell line not stated here;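 further: phosphodiesterase inhibitor Ro 20-1724 added with compounds to block cAMP breakdown; potency means the concentration at half of the fitted maximal effect; nearly all actives have a fitted effect of over 60% in size; about a fifth of the inactives were tested at one dose only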
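Cells in DMEM/10% FBS with G418 were pretreated with compounds in DMSO plus […] (300 uM stock) for 30 min at 37C. cAMP was measured by HTRF (cAMP-d2 plus anti-cAMP antibody-K) after 30 min at room temperature.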
Menin-MLL FL inh = displaces fluorescein MLL peptide from human menin; Fluorescence polarization, fluorescein-MLL peptide displacement from menin; FP activity change, % at 61.4 µM; 290,000 tested, under 10 active; AID 1766; inconclusive = falling polarisation curve, or a change in total fluorescence; inactive = total fluorescence flat and polarisation flat or rising; no compound was filed as active; the % refers to the polarisation; negative = inhibition;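 further: % of control where 0% means no effect; inhibitors lower the polarisation; unlabelled MLL peptide was the positive control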
TRPV1 PAM = enhances activation of the human vanilloid receptor TRPV1 | TRPV1-expressing cells, Fluo-8 calcium influx, capsaicin EC20 potentiation; host cell line not named in the record; control for the full effect not named in the record | Q8NER1 | AID 540277 | potentiation, % at 8.33 µM | actives 0.02% (n = 320,000); active means potentiation above 80%; inconclusive means 30% to 80%; inactive means below 30%; further: 0% is about no effect
Target sequence (Q8NER1 whole entry, looked up): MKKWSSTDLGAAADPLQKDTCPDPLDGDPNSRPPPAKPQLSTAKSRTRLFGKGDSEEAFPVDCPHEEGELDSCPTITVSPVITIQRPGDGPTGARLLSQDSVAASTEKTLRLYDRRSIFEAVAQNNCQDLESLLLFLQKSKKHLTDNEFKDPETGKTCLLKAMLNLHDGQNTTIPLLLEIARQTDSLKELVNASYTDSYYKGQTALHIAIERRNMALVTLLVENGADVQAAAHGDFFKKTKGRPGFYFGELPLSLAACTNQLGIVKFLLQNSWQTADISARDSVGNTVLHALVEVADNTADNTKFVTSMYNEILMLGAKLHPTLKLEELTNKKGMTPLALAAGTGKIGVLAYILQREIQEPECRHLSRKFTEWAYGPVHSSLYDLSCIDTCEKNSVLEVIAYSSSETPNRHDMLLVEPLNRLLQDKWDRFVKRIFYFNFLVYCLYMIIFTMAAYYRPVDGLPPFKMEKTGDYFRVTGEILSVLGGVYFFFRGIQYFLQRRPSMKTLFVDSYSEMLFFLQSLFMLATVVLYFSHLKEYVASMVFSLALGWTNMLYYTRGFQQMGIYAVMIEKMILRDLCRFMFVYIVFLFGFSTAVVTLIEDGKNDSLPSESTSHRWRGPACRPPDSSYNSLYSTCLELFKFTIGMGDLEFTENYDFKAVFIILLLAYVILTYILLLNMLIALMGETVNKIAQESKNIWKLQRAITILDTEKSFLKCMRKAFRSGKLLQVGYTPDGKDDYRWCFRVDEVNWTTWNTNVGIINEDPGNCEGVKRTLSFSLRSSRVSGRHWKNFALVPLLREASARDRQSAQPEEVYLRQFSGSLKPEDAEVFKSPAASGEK
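TRPV1-expressing cells were cultured overnight at 35.5C and loaded with Fluo-8 calcium dye for 40 to 90 min at room temperature. After a 10 s baseline, compound was added and calcium influx was read kinetically for 3 min (ex 480/em 520 nm).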
gsp antagonist = antagonists of gsp mutant (McCune-Albright syndrome); gsp-mutant cells, cAMP HTRF, 30 min; control for the full effect not named in the record; Potency, µM (top dose mostly 76.9 µM), for the others: at the highest dose activity change, negative = inhibition, usual class: inhibitors; actives 0.4% (n = 340,000); active = falling curve of any shape with a large fitted effect; inconclusive = falling curve, mostly with a smaller effect; inactive = flat or rising curve; cell line not stated here;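 further: intracellular cAMP measured with PDE inhibitor Ro 20-1724 present during compound exposure; potency means the concentration at half of the fitted maximal effect; on the % scale 0 is the no-effect control and ±100 the full control effect; nearly all actives have a fitted effect of over 65% in size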
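HTRF cAMP read-out (cAMP-d2 plus anti-cAMP antibody-K in lysis buffer, 30 min RT). Before lysis, cells are exposed to compounds with […] for 30 min at 37C in DPBS containing Ca/Mg, BSA and Tween 20.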
ClpP mod = qHTS Assay for Activators of ClpP; purified B. subtilis ClpP, FRET peptide cleavage, 20 min; actives 1.9% (n = 340,000); Potency, µM (highest dose often 57.5 µM), for the others: top-dose activity change, negative = active; ATP-dependent Clp protease proteolytic subunit (Bacillus subtilis (strain 168)), P80244; AID 651965, 2013; active = well fitted falling curve with a large enough effect; inconclusive = small, poorly fitted or top-dose-only effect; inactive = no such curve, though single readings can be large or run the other way; further: potency means the concentration at half of the fitted maximal effect; the source files actives as falling curves though it sought activators and does not explain the sign; nearly all actives have a fitted effect of over 65% in size; many hits overshoot -100%
Target sequence (P80244 whole entry, looked up): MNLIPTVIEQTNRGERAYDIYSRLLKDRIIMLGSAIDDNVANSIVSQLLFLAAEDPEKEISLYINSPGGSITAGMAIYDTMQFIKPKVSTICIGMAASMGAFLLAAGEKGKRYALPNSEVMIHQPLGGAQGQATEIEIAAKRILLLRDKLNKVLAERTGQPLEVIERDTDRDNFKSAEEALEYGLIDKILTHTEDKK
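FRET quenching reversal measured ClpP activation: 10 microg/mL B. subtilis ClpP at pH 8 with the FRET-FV decapeptide, read at 430 nm after 320 nm excitation. The 20-min minus 0-min signal was scaled between DMSO/no-enzyme wells and ADEP (5.8 microM final).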
The depositor's hits bear a star; ? = inconclusive; nt = not tested or not shown; [ ] = another dose, or the depositor's remark.

Screens in order – Sfp inh, D2 potentiator, gsp agonist, Menin-MLL FL inh, TRPV1 PAM, gsp antagonist, ClpP mod
COc1cc(C(C(=O)NC(C)(C)C)N(C(=O)CNC(=O)c2cccs2)c2ccc(C(C)C)cc2)cc(OC)c1OC (stereo not given)
  21%, -24, -7%, 4.7, 17, -1%, 0.0%
Cc1ccccc1CCN(C(=O)Cn1nnc2ccccc21)C(C(=O)NCC1CCCO1)c1nc2ccccc2n1C (stereo not given)
  12%, -1, -9%, -1.0, -10, 6%, -0.9%
Cn1cc(Cl)c(C(=O)Nc2nc3ccccc3s2)n1
  21%, -1, -4%, 8.9, -2, -5%, -19%
O=C(NCC(=O)N(c1ccccc1)C(C(=O)NC1CCCC1)c1cccnc1)c1cccs1 (stereo not given)
  22%, -6, 5%, 2.5, -2, -2%, -2.3%
COc1ccc(-c2nc(C#N)c(NCCc3ccccc3)o2)cc1OC
  -10%, -13, -8%, 0.9, 0, 10%, 6.3µM*
COc1ccc(S(=O)(=O)CC(O)CN2CCCC2=O)cc1 (stereo not given)
  7%, -6, -15%, 3.4, -4, -3%, 0.1%
CCOC(=O)c1c(O)cc(C)cc1Nc1ccccc1
  -14%, -4, -3%, -0.7, -4, -22%, nt
COc1ccc2[nH]c(=O)c(CN(C(=O)c3cccnc3)c3cc(C)ccc3C)cc2c1
  7%, -5, 17%[15.4 µM], 4.3, 4, -18%, nt
O=C(NCCCCc1ccccc1)C1CCCC1
  -4%, -23, -2%[15.4 µM], 1.6, -14, -1%, -0.1%
COc1ccc2ccc3c(c2c1)N=CC1(O3)N(C)c2ccccc2C1(C)C (stereo not given)
  -4%, 71*, -43%[inhibitor], 0.8, 30, -10%, -13%
O=c1ccn(CCc2c[nH]c3ccccc23)c2c1CCCC2
  -20%, 3, -27%[15.4 µM], -5.3, -2, 4%, nt
Cc1sc2nc(CN(C(=O)NCc3ccccc3)C3CCCC3)[nH]c(=O)c2c1C
  -1%, -3, 2%[15.4 µM], 3.3, -6, -14%, nt
Nc1nonc1-n1nnc(C(=O)N/N=C/c2ccncc2)c1CSc1ccccc1
  7%, -2, 10%, 2.5, -3, -28%, -2.7%
Cc1ccc(S(=O)(=O)CCC(=O)Nc2nnc(CC(C)C)s2)cc1
  nt, 7, -13%, nt, -5, 6%, -3.3%
Cc1sc(NC(=O)CSc2nnnn2C(C)C)c(C#N)c1C
  4%, 1, 5%[15.4 µM], 0.5, 15, -14%, nt
CC(C)c1ccc(NC2CCCN(C(=O)c3ccccc3-c3ncc[nH]3)C2)cc1 (stereo not given)
  1%, -3, -24%, nt, -4, -9%, -1.1%
CCCNC(=O)C1CC(c2ccccc2C(F)(F)F)=NO1 (stereo not given)
  nt, -8, ?, nt, 13, 7%, -2.0%
COc1ccc(CCC(=O)NCCS(=O)(=O)N2CCN(c3ccccc3OC)CC2)cc1
  20%, 2, ?, -1.9, 1, -20%, 0.7%
COc1cc(-c2n[nH]c(=S)n2C(C)c2ccccc2)cc(OC)c1OC (stereo not given)
  0%, -1, -7%, 0.5, -22, -23%, -7.3%
COc1cc(S(=O)(=O)N(Cc2ccco2)C2CCCC2)ccc1-n1cnnn1
  ?, -18, -26%, 10, 0, -4%, -0.2%
COc1ccc(S(=O)(=O)N2CCOC2CNC(=O)C(=O)NCc2ccc3c(c2)OCO3)cc1 (stereo not given)
  nt, -2, -5%[15.4 µM], nt, nt, 7%, -0.6%
NC(=O)CC[C@H](NC(=O)c1ccc(F)cc1)C(=O)OCC(=O)Nc1ccc(N2CCOCC2)cc1
  7%, -2, -2%, 4.3, -15, 14%, 0.9%
Cc1ccc(S(=O)(=O)N2CCC(C(=O)OCCOc3cccc(C)c3)CC2)cc1
  nt, -2, 2%, nt, -7, -12%, 1.6%
Cc1c(CNC2CCCC(C)C2C)c(C(=O)O)c(C)n1Cc1ccccc1 (stereo not given)
  10%, -16, -1%, 0.6, 4, -3%, 2.5%
CN1CCN(CC(=O)N/N=C/c2ccc(F)c(F)c2)CC1
  -22%, -5, -76%[inhibitor], nt, -7, 15%, 0.1%
CCOc1cc(/C=N/Nc2ccccc2Cl)ccc1OCC(=O)O
  -24%, 13, -30%[inhibitor], 0.9, -1, -11%, -1.6%
C=CCN1C(=O)c2ccc(C(=O)OCC(=O)Nc3ccccc3OC)cc2C1=O
  nt, -4, 2%, nt, 2, 14%, 0.1%
CCOC(=O)CSc1nc2sc3c(c2c(=O)[nH]1)CC(C)(CC)OC3 (stereo not given)
  4%, -15, 5%, -1.3, -7, -12%, -9.7%
COc1ncccc1-c1nnn(-c2ccccc2)n1
  9%, -9, -1%, -1.3, 15, -2%, -5.3%
Clc1cccc(/C=N/Nc2nc(Cl)nc3ccccc23)c1
  -19%, -9, -2%, 7.2, 28, 0%, -18%

The listing continues.
Screens in order – Sfp inh, D2 potentiator, gsp agonist, Menin-MLL FL inh, TRPV1 PAM, gsp antagonist, ClpP mod
COC(=O)c1c(SCC(=O)Nc2ccc(C)c(C)c2)nc(=O)[nH]c1C
  12%, -13, 18%, 6.5, 20, -3%, -3.2%
COc1ccc(CCNC(=O)COC(=O)C2CCCCC2)cc1
  8%, -9, -3%, 4.2, -3, 18%, 1.9%
O=C(O)c1ccc2c(=O)n3c(nc2c1)/C(=C/c1ccc(Cl)c(Cl)c1)CC3
  5%, -12, 2%, -0.4, -6, -25%, ?
Cc1ccc(NC(=O)CN2CCc3cc4c(cc3C2)OCCCO4)cc1C
  4%, -29, -2%, nt, 5, 2%, -5.0%
CC(=O)Nc1ccc(NC(=O)c2ccc(CSc3ccccc3)o2)cc1
  9%, 1, 6%[15.4 µM], 0.9, -4, 1%, nt
CCOC(=O)c1ccc2ncc(C(=O)OCC)c(NCCN3CCOCC3)c2c1
  7%, 1, -3%, -5.7, -13, ?, -5.9%
Nc1[nH]c(N=NC(=O)c2ccc(F)cc2)c2ccccc12
  -16%, -23, ?, -11, -13, 1%, -5.1%
O=C(Nc1ccccc1)Nc1ccccc1C(=O)NCc1ccco1
  9%, 11, -9%, 4.0, -5, 1%, -7.5%
CN(C)CC(C)(C)CNCc1cc(=O)oc2ccc3ccccc3c12
  13%, -5, -12%, -1.6, -4, -18%, nt
O=C(CSc1cccc[n+]1[O-])Nc1cc(S(=O)(=O)N2CCOCC2)ccc1N1CCOCC1
  -1%, -5, 34%[15.4 µM], 9.0, -23, 5%, 0.9%
CC(C)=CC(=O)Nc1ccc(Br)cc1
  17%, 1, -8%, -0.8, -5, -3%, -1.3%
O=C(CCl)Nc1cn(-c2ccccc2)nc1-c1ccccc1
  2%, -12, -15%, 2.5, -3, -10%, -14%
CCCCCCC[C@H](N)[C@H](O)C(=O)N(C)[C@@H](CCS(C)=O)C(=O)N[C@@H](Cc1ccc(O)cc1)C(=O)N[C@@H](Cc1ccc(O)cc1)C(=O)O (stereo not given in full)
  12%, -10, 11%, -11, -9, 0%, -1.6%
CCN(CC)CC(C)OC(=O)COc1ccc(OC)cc1 (stereo not given)
  21%, -6, -26%, 1.8, 3, 5%, -0.5%
COc1ccc2cc(CN(Cc3cccs3)Cc3nnnn3Cc3ccccc3)c(=O)[nH]c2c1
  0%, -1, 8%, 1.3, 12, 0%, ?
CC(OC(=O)c1nc(Cl)ccc1Cl)C(=O)NCc1ccccc1 (stereo not given)
  nt, -12, -72%[inhibitor], nt, nt, nt, 1.8%
COc1ccccc1C(C)NC(=O)Cc1ccsc1 (stereo not given)
  6%, -6, 20%, 2.8, 29, 2%, nt
CSc1nc(=NC(C)=O)ss1
  4.5µM*, 23, 7%, 3.4, 19, -1%, -2.2%
COc1cccc(-c2nnc(SCc3nc4ccccc4[nH]3)n2N)c1
  15%, -6, 7%[15.4 µM], 3.0, 1, -9%, -0.9%
CCNC(=O)NC(=O)C(C)N1C(=O)NC(c2ccccc2)(c2ccccc2)C1=O (stereo not given)
  3%, -2, 12%, -2.0, -13, 4%, nt
Cn1c(N)c(C(=O)COC(=O)/C=C/c2ccccc2Cl)c(=O)n(C)c1=O
  nt, 8, 38%, nt, 10, -27%, 3.0%
C/C(=N\Nc1nc(-c2ccc(C)cc2C)cs1)c1cc2ccccc2oc1=O
  40µM*, -13, -28%, 3.6, -12, 0%, -2.8%
CCOCCCNC(c1ccccc1)c1ccncc1 (stereo not given)
  6%, 3, -8%, 1.2, -9, 2%, -1.2%
CCN(CC)CCn1c(=S)[nH]c2cc(C(=O)NCCc3ccc(OC)c(OC)c3)ccc2c1=O
  nt, -16, 8%, nt, nt, nt, -0.8%
CSc1ccccc1NC(=O)c1ccc2c(c1)CCN2S(C)(=O)=O
  4%, -3, 20%, 0.5, -9, -5%, nt
COC(=O)c1cn(-c2ccccc2)nc1-c1cccnc1
  15%, -10, 2%, 1.7, -4, 5%, -6.8%
O=C(N/N=C/C1CC2CCC1C2)c1ccc2c(c1)OCO2 (stereo not given)
  3%, -12, -16%, 3.4, -1, 0%, -2.7%
O=C(CNC(=O)c1ccccc1Cl)NCCc1cccs1
  nt, -33, -11%[15.4 µM], nt, nt, 4%, -1.3%
CC(C)(C)c1nc(S(=O)(=O)c2ccc(Cl)cc2)c(N2CCOCC2)o1
  -4%, -13, 7%, 0.2, -3, 7%, -1.7%
O=C(NCc1ccon1)c1ccc(OC2CCN(CCc3ccccc3)CC2)cc1
  17%, -17, -7%, -5.8, -1, -4%, nt
CC(C(=O)NC1CCCC1)N(C(=O)c1ccc(-c2ccccc2)[nH]1)c1ccccc1F (stereo not given)
  2%, -16, -24%, 8.1, -12, -18%, 32µM*

Not a hit list. About 5.1% of those tested had a hit in this group.
